High-throughput results: PubChem BioAssay, Broad Institute
NOMO-1 viab: NOMO-1 AML cell viability reduction, primary screen, STK33 inhibitor project, CellTiter-Glo luminescence; hit rate 7.5% among 37,000; AID 2330, 2010; inhibition, % (no concentration beside the values); NOMO-1 AML viability, 72 h;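 active means most replicates above 80%; inconclusive means exactly half above 80%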;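 further: wells of about 30 µL received 25 nL stock; 0% = median of vehicle wells and 100% = reference inhibitor level; the first replicate is given; inactives centre near 10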
Starred values were filed as active, the others as inactive; ? = inconclusive.

SMILES	NOMO-1 viab
COc1cc2c(cc1NC(=O)CSc1nnnn1C)oc1ccccc12	51
C[C@H](CO)N1C[C@H](C)[C@H](CN(C)Cc2ccc(C(=O)O)cc2)Oc2ccc(NC(=O)NC3CCCCC3)cc2C1=O	1
Cn1c(SCC(=O)Nc2ccc(Oc3ccccc3)cc2)nnc1-c1ccccc1Cl	54
Cc1cc(Cl)cc(Br)c1OCCCSc1ncccn1	21
C[C@@H]1CN([C@H](C)CO)C(=O)c2cc(NS(=O)(=O)c3cccs3)ccc2O[C@@H]1CN(C)C(=O)Nc1ccc(C(F)(F)F)cc1	-17
CCn1c(SCC(=O)Nc2ccc(Br)cc2Cl)nnc1-c1ccccc1	-7
C[C@@H]1CN([C@H](C)CO)C(=O)Cc2cc(NC(=O)C3CCCCC3)ccc2O[C@H]1CN(C)S(C)(=O)=O	-10
C[C@H]1CN([C@@H](C)CO)C(=O)c2cc(NC(=O)NC3CCCCC3)ccc2O[C@@H]1CN(C)Cc1ccc(-c2ccccc2)cc1	38
C[C@@H]1CN([C@H](C)CO)C(=O)c2cc(NC(=O)Nc3cccc4ccccc34)ccc2O[C@H]1CN(C)Cc1ccc(-c2ccccc2)cc1	118*
COc1ccc(CN(C)C[C@H]2Oc3ccc(NC(=O)Nc4ccc(C(F)(F)F)cc4)cc3C(=O)N([C@@H](C)CO)C[C@H]2C)cc1	126*
CCN(CC(=O)O)S(=O)(=O)c1ccc(OC)cc1	3
C[C@@H]1CN([C@H](C)CO)C(=O)c2cc(NS(=O)(=O)c3cccs3)ccc2O[C@@H]1CN(C)Cc1ccc(C(=O)O)cc1	4
COC(=O)c1c(NC(=O)c2ccccc2N(C)S(=O)(=O)c2ccccc2)sc2c1CCCC2	117*
N#Cc1c(N)[nH]c(=S)c(C(N)=O)c1-c1cccc(Br)c1	?
CNC(=O)N(Cc1cccnc1)Cc1ccccc1Cl	32
CC(C)OC(=O)c1cccc(C(=O)OC(C)C)n1	14
C[C@@H]1CN([C@@H](C)CO)C(=O)c2cccc(NS(=O)(=O)c3ccc(F)cc3)c2O[C@@H]1CN(C)Cc1ccc(Cl)c(Cl)c1	45
C[C@H]1CN([C@@H](C)CO)C(=O)Cc2cc(NC(=O)Cc3ccccc3)ccc2O[C@H]1CN(C)Cc1ccc(C(=O)O)cc1	8
COc1ccc(CCn2c(C)cc(O)cc2=O)cc1OC	26
CCOC(=O)c1c(NC(=O)CN2C(=O)c3ccccc3C2=O)sc(C)c1-c1ccccc1	-18
C=C(C)C(O)Cc1cc(CCc2cc(O)cc(O)c2)cc(O)c1OC (configuration not stated)	-5
COc1ccc(N(C(C)C(=O)Nc2cccc(Br)c2)S(C)(=O)=O)cc1 (configuration not stated)	-14
CC(C)NC(=O)N(C)C[C@@H]1Oc2ccc(NC(=O)c3ccncc3)cc2CC(=O)N([C@H](C)CO)C[C@H]1C	4
Cc1ccc2nc(-c3ccc(NC(=O)C(C)Oc4ccc5c(C)cc(=O)oc5c4)cc3)sc2c1 (configuration not stated)	21
C[C@H]1CN([C@@H](C)CO)C(=O)Cc2cc(NS(=O)(=O)c3cccs3)ccc2O[C@H]1CN(C)Cc1ccc(Oc2ccccc2)cc1	70

Molecules above that contain four or more nitrogen atoms, in the order listed:
SMILES	NOMO-1 viab
COc1cc2c(cc1NC(=O)CSc1nnnn1C)oc1ccccc12	51
C[C@H](CO)N1C[C@H](C)[C@H](CN(C)Cc2ccc(C(=O)O)cc2)Oc2ccc(NC(=O)NC3CCCCC3)cc2C1=O	1
Cn1c(SCC(=O)Nc2ccc(Oc3ccccc3)cc2)nnc1-c1ccccc1Cl	54
C[C@@H]1CN([C@H](C)CO)C(=O)c2cc(NS(=O)(=O)c3cccs3)ccc2O[C@@H]1CN(C)C(=O)Nc1ccc(C(F)(F)F)cc1	-17
CCn1c(SCC(=O)Nc2ccc(Br)cc2Cl)nnc1-c1ccccc1	-7
C[C@H]1CN([C@@H](C)CO)C(=O)c2cc(NC(=O)NC3CCCCC3)ccc2O[C@@H]1CN(C)Cc1ccc(-c2ccccc2)cc1	38
C[C@@H]1CN([C@H](C)CO)C(=O)c2cc(NC(=O)Nc3cccc4ccccc34)ccc2O[C@H]1CN(C)Cc1ccc(-c2ccccc2)cc1	118*
COc1ccc(CN(C)C[C@H]2Oc3ccc(NC(=O)Nc4ccc(C(F)(F)F)cc4)cc3C(=O)N([C@@H](C)CO)C[C@H]2C)cc1	126*
N#Cc1c(N)[nH]c(=S)c(C(N)=O)c1-c1cccc(Br)c1	?
CC(C)NC(=O)N(C)C[C@@H]1Oc2ccc(NC(=O)c3ccncc3)cc2CC(=O)N([C@H](C)CO)C[C@H]1C	4

(continued)
SMILES	NOMO-1 viab
COc1ccc(S(=O)(=O)Nc2ccc3c(c2)CC(=O)N([C@H](C)CO)C[C@@H](C)[C@H](CN(C)S(=O)(=O)c2ccc(C)cc2)O3)cc1	-1
Cc1ccc(C(C)C)c(OCC(=O)Nc2sc3c(c2C(N)=O)CCC(C)C3)c1 (configuration not stated)	63
C=C(C)C(=O)O[C@@H]1C2=C(C)C(=O)OC2(O)CC23OC2CC[C@H](C)[C@@]13C (some centres not stated)	23
C[C@H]1CN([C@@H](C)CO)C(=O)c2cc(NC(=O)Nc3cccc4ccccc34)ccc2O[C@@H]1CN(C)C(=O)Nc1ccc(F)cc1	-1
CN(C)/C=C/C(=O)c1sc(SCc2ccc(Cl)cc2)c2c1CC(C)(C)CC2=O	113*
Cc1noc(C)c1S(=O)(=O)Nc1ccc2c(c1)C(=O)N([C@@H](C)CO)C[C@H](C)[C@@H](CN(C)Cc1ccncc1)O2	11
COc1ccc(S(=O)(=O)Nc2cccc3c2O[C@@H](CN(C)CC2CC2)[C@@H](C)CN([C@@H](C)CO)C3=O)cc1	-5
C[C@@H]1CN([C@H](C)CO)C(=O)c2cc(NC(=O)CCC(F)(F)F)ccc2O[C@H]1CN(C)Cc1ccncc1	4
Cc1cc(C)c2nc(-c3ccc(F)cc3)cc(C(=O)NCc3ccco3)c2c1	27
C[C@H](CO)N1C[C@H](C)[C@@H](CN(C)Cc2ccc(C(=O)Nc3ccccc3N)cc2)Oc2c(NC(=O)C3CC3)cccc2C1=O	106*
CC(C)NC(=O)Nc1ccc2c(c1)C(=O)N([C@@H](C)CO)C[C@@H](C)[C@H](CN(C)Cc1ccc3c(c1)OCO3)O2	-23
CC(C)(C)C(=O)Nc1ccccc1C(=O)N1CCN(Cc2ccccc2)CC1	-32
C[C@H]1CN([C@@H](C)CO)C(=O)Cc2cc(NS(C)(=O)=O)ccc2O[C@H]1CN(C)Cc1ccc(Cl)c(Cl)c1	45
CS(=O)(=O)N(CC(=O)Nc1cccc([N+](=O)[O-])c1)c1cccc(F)c1	1
O=C(O)c1cc(N=Cc2ccccc2O)ccc1O	0
Cc1nn(C)c(-c2n[nH]c(=S)n2-c2ccc(CC(=O)O)cc2)c1Br	-14
Cc1ncsc1CCSc1nc2ccccc2c(=O)n1C	17
C[C@@H]1CN([C@@H](C)CO)C(=O)c2cc(NC(=O)CCCCCC(=O)Nc3ccccc3N)ccc2O[C@H]1CN(C)Cc1ccc(C(F)(F)F)cc1	?
COc1ccc(S(=O)(=O)N2CCN(c3nc4ccccc4nc3-n3nc(C)cc3C)CC2)cc1	5
C[C@H](CO)N1C[C@H](C)[C@H](CN(C)CC2CC2)Oc2ccc(NC(=O)Cc3cn(C)c4ccccc34)cc2C1=O	15
Cc1cc(=O)oc2c(O)c(O)ccc12	27
Cc1cccc(-n2c(SCC(=O)N3CCOCC3)nnc2-c2ccccc2)c1	8
C[C@H]1CN([C@@H](C)CO)C(=O)c2cc(NC(=O)CCCN(C)C)ccc2O[C@@H]1CN(C)Cc1ccc(Oc2ccccc2)cc1	35
C[C@@H]1CN([C@H](C)CO)C(=O)c2cccc(NC(=O)C3CCCCC3)c2O[C@@H]1CN(C)C(=O)Nc1ccc(F)cc1	-6
C[C@@H]1CN([C@H](C)CO)C(=O)Cc2cc(NS(=O)(=O)c3ccccc3)ccc2O[C@@H]1CN(C)CC1CCCCC1	45

A second format for some results above.
mol | NOMO-1 viab
C=C(C)C(=O)O[C@@H]1C2=C(C)C(=O)OC2(O)CC23OC2CC[C@H](C)[C@@]13C (some centres not stated) | 23
C[C@H]1CN([C@@H](C)CO)C(=O)c2cc(NC(=O)Nc3cccc4ccccc34)ccc2O[C@@H]1CN(C)C(=O)Nc1ccc(F)cc1 | -1

Next results:
SMILES	NOMO-1 viab
Cc1ccc(S(=O)(=O)Nc2ccc3c(c2)C(=O)N([C@@H](C)CO)C[C@H](C)[C@H](CN(C)C(=O)Nc2ccc4c(c2)OCO4)O3)cc1	7
CC(C)(C)c1cc(C(=O)Cn2c(NCCO)nc3ccccc32)cc(C(C)(C)C)c1O	57
C[C@H](CO)N1C[C@H](C)[C@H](CN(C)S(C)(=O)=O)Oc2ccc(NC(=O)CCC(F)(F)F)cc2CC1=O	17
COc1ccc(C(=O)CSc2nnc(-c3ccc(C)cc3)n2-c2ccc(C)cc2)cc1	4
C[C@H]1CN([C@@H](C)CO)C(=O)Cc2cc(NS(=O)(=O)c3cn(C)cn3)ccc2O[C@@H]1CN(C)C(=O)Nc1ccc(F)cc1	15
CCOC(=O)c1cnc2cc(C(F)(F)F)ccc2c1N1CCCCCC1	13
CCn1c(SCC(=O)Nc2sc3c(c2C#N)CCC(C(C)(C)C)C3)nnc1-c1cccc(C)c1 (configuration not stated)	20
CC(C)NC(=O)N(C)C[C@@H]1Oc2c(NS(=O)(=O)c3ccc(Cl)cc3)cccc2C(=O)N([C@@H](C)CO)C[C@H]1C	8
C[C@@H]1CN([C@H](C)CO)C(=O)Cc2cc(NC(=O)Cn3cnnn3)ccc2O[C@H]1CN(C)Cc1ccc(Cl)c(Cl)c1	4
Cc1cccc(NC(=O)C(=O)NCCCO)c1	22
C[C@H]1CN([C@@H](C)CO)C(=O)c2cccc(NC(=O)c3ccncc3)c2O[C@H]1CN(C)CC1CC1	-12
CC(C)c1ccc2oc(-c3ccc(Cl)c(NC(=O)COc4ccc([N+](=O)[O-])cc4)c3)nc2c1	110*
C[C@@H]1CN([C@@H](C)CO)C(=O)c2cccc(NC(=O)c3nc4ccccc4s3)c2O[C@@H]1CN(C)C(=O)Nc1ccc2c(c1)OCO2	22
COc1ccc(S(=O)(=O)N(C)C[C@H]2Oc3c(NS(=O)(=O)c4c(C)noc4C)cccc3C(=O)N([C@@H](C)CO)C[C@H]2C)cc1	26
Cc1ccc(S(=O)(=O)Nc2ccc3c(c2)C(=O)N([C@H](C)CO)C[C@H](C)[C@H](CN(C)C(=O)CCCN(C)C)OCCCC[C@@H](C)O3)cc1	21
C[C@H]1CN([C@@H](C)CO)C(=O)c2cccc(NC(=O)NC3CCCCC3)c2O[C@H]1CN(C)Cc1ccc(C(=O)Nc2ccccc2N)cc1	129*
Cc1ccc(C)c(-n2nnnc2SCC(=O)Nc2ccccc2[N+](=O)[O-])c1	-3
C[C@@H]1CN([C@@H](C)CO)C(=O)c2cc(NC(=O)Cc3ccccc3)ccc2O[C@H]1CN(C)Cc1ccc(Oc2ccccc2)cc1	64
Cc1noc(C)c1NC(=O)N(C)C[C@H]1Oc2c(NC(=O)c3ccc(-c4nccs4)cc3)cccc2C(=O)N([C@@H](C)CO)C[C@@H]1C	29
C[C@@H]1CN([C@@H](C)CO)C(=O)c2cccc(NC(=O)C3CC3)c2O[C@@H]1CN(C)Cc1ccc(Oc2ccccc2)cc1	7
CC(C)NC(=O)N(C)C[C@@H]1Oc2ccc(NS(=O)(=O)c3ccc(F)cc3)cc2CC(=O)N([C@@H](C)CO)C[C@@H]1C	11
Cc1c(CNC(=O)c2cnn3c2NC(c2ccc(Br)cc2)CC3C(F)(F)F)cnn1C (configuration not stated)	-5
C[C@H](CO)N1C[C@H](C)[C@H](CN(C)Cc2ccc(C(F)(F)F)cc2)Oc2c(NC(=O)Nc3ccc(C(F)(F)F)cc3)cccc2C1=O	110*
Cc1noc(C)c1S(=O)(=O)Nc1ccc2c(c1)C(=O)N([C@H](C)CO)C[C@H](C)[C@H](CN(C)Cc1ccc(C(=O)Nc3ccccc3N)cc1)O2	108*
CC(C)(C)c1ccc(-c2cc3ccccn3c2)cc1	104*

Next section
SMILES	NOMO-1 viab
O=[N+]([O-])c1ccc(NCCNCc2cccnc2)cc1	-20
COc1ccc(S(=O)(=O)N(C)C[C@H]2Oc3ccc(NS(=O)(=O)c4cn(C)cn4)cc3CC(=O)N([C@@H](C)CO)C[C@H]2C)cc1	-10
CCCS(=O)(=O)N1CCN(C2CCN(C(=O)OCC)CC2)CC1	-7
Cc1cc(Cl)ccc1NC(=O)CSc1nnc(-c2ccc(Br)cc2)n1C	33
CC(C)(C)C(=O)COc1cccc(NC(=O)c2ccc([N+](=O)[O-])cc2)c1	35
Cc1ncc(CO)c(/C=N/O)c1O	2
Cc1cc(C)c(N=C(NN)N(C)C)cc1C	40
C[C@H]1CN([C@@H](C)CO)C(=O)Cc2cc(NS(=O)(=O)c3ccc(Cl)cc3)ccc2O[C@@H]1CN(C)Cc1ccc(C(=O)O)cc1	3
Cc1noc(C)c1S(=O)(=O)Nc1ccc2c(c1)CC(=O)N([C@H](C)CO)C[C@@H](C)[C@@H](CN(C)Cc1ccc3c(c1)OCO3)O2	3
CCOC(=O)CSc1nnc(-c2ccccc2)n1-c1cccc(C)c1	66
COc1ccc(-n2nc3ccc(NC(=O)c4ccc(-c5ccccc5)cc4)cc3n2)cc1	21
O=C1S/C(=C/c2ccccc2Cl)C(=O)N1c1ccccc1	17
C=C[C@@]1(C)CCC2=C([C@H]1OC(C)=O)[C@H](OC(C)=O)CC1[C@](C)(C(=O)OC)CC[C@H](OC(C)=O)[C@]21C (some centres not stated)	21
COc1ccc(CN(C)C[C@@H]2Oc3ccc(NC(=O)CCC(F)(F)F)cc3C(=O)N([C@H](C)CO)C[C@H]2C)cc1	-9
COc1ccc(NC(=O)N(C)C[C@H]2Oc3ccc(NC(=O)CCCN(C)C)cc3C(=O)N([C@@H](C)CO)C[C@@H]2C)cc1	9
CC(=O)Oc1ccc2c(=O)c(-c3nc4ccccc4n3C)c(C)oc2c1	24
C=CCn1c(SCC(=O)c2ccc(CC)cc2)nnc1-c1cccc(OC)c1	0
Cc1noc(C)c1NC(=O)N(C)C[C@@H]1Oc2c(NC(=O)Nc3cccc4ccccc34)cccc2C(=O)N([C@@H](C)CO)C[C@@H]1C	21
C[C@H]1CN([C@@H](C)CO)C(=O)Cc2cc(NC(=O)CCC(F)(F)F)ccc2O[C@H]1CN(C)S(C)(=O)=O	12

Some of the compounds tested (hit frequency here may not be typical).
